# EPAC1 agonist: qHTS for Agonist of cAMP-regulated guanine nucleotide exchange factor 3 (EPAC1): primary screen; Rap guanine nucleotide exchange factor 3 (Homo sapiens), O95398; EPAC1 agonist qHTS, biochemical assay; response scale: 100% = response to 6.5 mM cAMP; Potency, µM (highest dose often 154 µM), for inactives: at the top dose activation, usual class: activators; 360,000 tested, 0.073% active; AID 720707, 2013; note: potency is the fitted concentration of half-maximal effect; nearly all actives have a fitted effect of over 60% in size
#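 Read-out is the fluorescence drop as BODIPY-GDP leaves Rap1B (480 nm excitation, 540 nm emission), recorded every 5 minutes over 30 minutes. Reactions held 100 nM EPAC1, 250 nM Rap1B–BODIPY-GDP and 50 uM GDP, with 6.5 mM cAMP setting full activation.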
# CCT chaperon mod: High-Throughput Screening for Modulators of Cytosolic Chaperonin Activity | activity change, % (no concentration beside the values), hits read low | AID 651819, 2012 | 360,000 tested, 0.3% active | purified chaperonin ATPase assay, HTRF ADP detection, 30 min; in the data active = activity change below about -30%; note: % is set by controls: 0 for no effect and ±100 for the full control effect
#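 First, chaperonin was dispensed at 40 nM or 20 nM final depending on batch activity. Next, compounds were pinned at 76 uM and ATP added at 10 uM. After 30 min at 37 °C, ADP detection reagents ran 30 min at ambient temperature.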
# WRN inhibitor: qHTS for Inhibitors of WRN Helicase; WRN helicase unwinding, fluorescent forked duplex, kinetic; Potency, µM (top dose mostly 114 µM), inactives show at the top dose activity change, negative = inhibition, usual class: inhibitors; AID 651768, 2012; 360,000 tested, 0.46% active; note: potency is the fitted concentration of half-maximal effect; % is set by controls: 0 for no effect and ±100 for the full control effect; nearly all actives have a fitted effect of over 55% in size
#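 Primary qHTS, 1536-well format. 20 nM WRN + compound, 15 min RT; start with 100 nM forked fluorophore/quencher duplex, 2 mM ATP (final); kinetic read ex 525/em 598 nm.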
# Mm-Cpn inhibitor: Inhibitors of TCP-1 ring complex (TRiC) of Methanococcus maripaludis (MmCpn): qHTS; Chaperonin Mm-Cpn (Methanococcus maripaludis); purified Mm-Cpn ATPase, ADP Transcreener TR-FRET; Potency, µM (doses to about 76.9 µM), for the others: at the highest dose activity, negative = inhibition, actives largely listed as inhibitors; 330,000 tested, 0.031% active; note: potency is the fitted concentration of half-maximal effect; % is set by controls: 0 for no effect and ±100 for the full control effect; nearly all actives have a fitted effect of over 80% in size
#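 ATPase read-out: TR-FRET ADP immunoassay (anti-ADP Eu cryptate vs ADP-d2), ex 320 nm, em 590/665 nm; signal drops as ADP forms. Enzyme 25 nM, ATP 10 uM, 30 min at 37°C after 10 min compound preincubation.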
# EPAC1 antag: qHTS for Antagonist of cAMP-regulated guanine nucleotide exchange factor 3 (EPAC1): primary screen | Rap guanine nucleotide exchange factor 3 (Homo sapiens), O95398 | EPAC1 GEF assay, Rap1b-BODIPY-GDP exchange fluorescence | Potency, µM (series often up to 115 µM), inactives show at the highest dose activity change, negative = inhibition, most hits filed as inhibitors | 360,000 tested, 0.14% active | AID 720709, 2013;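 note: potency is the fitted concentration of half-maximal effect; plate controls were vehicle for no effect and positive control for full effect; nearly all actives have a fitted effect of over 50% in size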
# EPAC2 antag: qHTS for Antagonist of cAMP-regulated guanine nucleotide exchange factor 2 (EPAC2): primary screen; Rap guanine nucleotide exchange factor 4 (Homo sapiens), Q8WZA2; EPAC2 GEF exchange of Rap1B-BODIPY-GDP, fluorescence; Potency, µM (highest dose often 114 µM), for inactives: top-dose activity, negative = inhibition, most hits filed as inhibitors; 360,000 tested, 0.18% active; note: potency is the fitted concentration of half-maximal effect; % is set by controls: 0 for no effect and ±100 for the full control effect; nearly all actives have a fitted effect of over 45% in size; many of its hits are not listed in these tables
# PLK1 PBD inh: qHTS for Inhibitors of PLK1-PDB (polo-like kinase 1 - polo-box domain): Primary Screen; Plk1 PBD binding of FITC phosphopeptide, fluorescence polarization; Serine/threonine-protein kinase PLK1 (Homo sapiens), P53350; Potency, µM, without a hit: max response, negative = inhibition, hits mostly inhibitors; AID 720504, 2013; 360,000 tested, 2.8% active; note: potency is the fitted concentration of half-maximal effect; series mostly up to about 57 µM; % is set by controls: 0 for no effect and ±100 for the full control effect; nearly all actives have a fitted effect of over 65% in size
# Target sequence (P53350 whole entry, looked up, the tested form may be a part): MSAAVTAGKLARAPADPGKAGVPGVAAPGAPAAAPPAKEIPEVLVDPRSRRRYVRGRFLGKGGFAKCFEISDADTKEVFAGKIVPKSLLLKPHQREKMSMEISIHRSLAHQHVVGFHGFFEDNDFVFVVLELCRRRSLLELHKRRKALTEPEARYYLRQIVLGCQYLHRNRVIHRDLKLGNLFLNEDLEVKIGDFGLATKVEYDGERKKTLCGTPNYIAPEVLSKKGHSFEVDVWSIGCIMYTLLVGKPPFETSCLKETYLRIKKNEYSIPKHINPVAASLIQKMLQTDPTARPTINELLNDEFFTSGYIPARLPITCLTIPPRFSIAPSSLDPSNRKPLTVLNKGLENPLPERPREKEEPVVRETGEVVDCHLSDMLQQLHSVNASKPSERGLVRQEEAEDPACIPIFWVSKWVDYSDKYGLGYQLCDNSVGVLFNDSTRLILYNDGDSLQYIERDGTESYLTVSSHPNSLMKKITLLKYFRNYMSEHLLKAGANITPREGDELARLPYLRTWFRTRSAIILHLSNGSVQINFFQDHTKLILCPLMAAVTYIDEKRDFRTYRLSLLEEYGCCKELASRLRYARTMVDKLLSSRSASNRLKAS
# Active calls of the source: *; ? = inconclusive; . = not tested or not shown; [ ] = remark or other dose. Unless noted, calls come from the whole dose curve; as a rule, active = well fitted curve in the direction sought with a large enough effect; inconclusive = small, poorly fitted or top-dose-only effect, or another doubt; inactive = no such curve, though single readings can be large; an effect the other way counts as inactive or inconclusive. This is a subset. The share of hits here may be higher or lower than overall.
EPAC1 antag	EPAC1 agonist	PLK1 PBD inh	EPAC2 antag	WRN inhibitor	Mm-Cpn inhibitor	CCT chaperon mod	structure
-6%	0%	-9%	-7%	-19%	0%	0.0	Cc1nn(-c2ccccc2)c2sc(C(=O)NCCN3CCOCC3)cc12
-3%	4%	-4%	5%	2%	2%	-2.9	Fc1cccc(Cc2noc(CN3CCSCC3)n2)c1
-10%	1%	-10%	4%	-2%	-1%	0.2	COc1cc2c(cc1OC)CN(C(=O)CCC(=O)c1ccc(F)cc1)CC2
-6%	6%	3%	-5%	-12%	0%	0.0	O=C(CNCc1cccs1)Nc1ccc(S(=O)(=O)N2CCCCC2)cc1
-17%	-15%	?	-5%	-9%	1%	-1.5	CC(C)Oc1ccc(C(=O)/C=C2/C(=O)Nc3ccccc32)cc1
-1%	9%	1%	-14%	-2%	0%	3.7	O=C(c1cc(S(=O)(=O)N2CCOCC2)ccc1F)N(CCc1ccccc1)Cc1ccccc1
2%	8%	0%	-2%	-1%	-1%	0.1	CCCCCCCSc1nsc(N)n1
14%	5%	-11%	16%	-1%	1%	2.0	O=C(O)c1cccc(S(=O)(=O)N2CCSCC2)c1
-10%	-3%	-3%	-2%	8%	-2%	-0.7	Cc1ccccc1OCC(=O)Nc1ccc([N+](=O)[O-])cc1
6%	3%	-3%	-2%	-17%	-1%	-0.9	COc1cc2c(cc1OC)CN(C(=O)c1sccc1C)CC2
-30%	3%	-27%	-6%	-14%	2%	1.6	Cc1cc([N+](=O)[O-])nn1CC(=O)Nc1sc2c(c1C(N)=O)CCCC2
-13%	7%	-15%	-2%	1%	-1%	-1.1	O=C(CN1CCN(S(=O)(=O)c2ccc(Br)cc2)CC1)N/N=C/c1cccs1
?	5%	-6%	-4%	-24%[57.1 µM]	-16%	-9.5	CCOC(=O)c1cc(-c2ccccc2)sc1NC(=O)C(C)N1C(=O)c2ccccc2C1=O (stereo unspecified)
1%	-6%	0%	-4%	8%	0%	-1.3	COc1ccc(CC2(CO)CCN(Cc3c(C)nn(C(C)C)c3C)CC2)cc1
12%	-9%	6%	15%	-8%	-2%	-0.2	CN1CCN(C(=O)c2ccc3c(=O)n(-c4ccc(F)cc4)c(=S)[nH]c3c2)CC1
-8%	-11%	-5%	1%	-2%	-1%	-4.4	CCCCCCSc1nsc(NC(=O)CC(C)C)n1
-22%	-6%	0%	4%	-6%	0%	-5.4	CCOC(=O)c1cc(-c2ccccc2)sc1NC(=O)CSc1nnc(N)s1
0%	1%	-9%	-6%	-8%	2%	-4.0	COc1cc2c(cc1OC)CN(C(=O)c1ccco1)CC2
-21%	-21%	4%	15%	-17%	?	-4.4	O=C(CCc1nc2sc3c(c2c(=O)[nH]1)CCCC3)NCCOc1ccccc1
1%	5%	-4%	0%	-1%	1%	0.4	COC(=O)c1ccccc1NC(=O)C1CC(=O)N(c2ccc(F)cc2)C1 (stereo unspecified)
-5%	5%	-5%	-9%	-6%	0%	0.2	O=C(Nc1ncc([N+](=O)[O-])s1)C1CC(=O)N(c2ccc(F)cc2)C1 (stereo unspecified)
6%	-5%	4%	1%	6%	-1%	-0.1	COc1ccc(-c2ccc3oc(-c4ccsc4)cc(=O)c3c2)cc1F
9%	2%	-10%	-4%	-5%	-7%	-1.3	Cc1ccccc1-c1nn2c(-c3ccccc3)nnc2s1
-2%	7%	-8%	9%	-5%	-1%	1.4	O=C(CN1CCCCCC1)Nc1ccc(S(=O)(=O)N2CCOCC2)cc1

# Three compounds drawn at random from those above:
EPAC1 antag	EPAC1 agonist	PLK1 PBD inh	EPAC2 antag	WRN inhibitor	Mm-Cpn inhibitor	CCT chaperon mod	structure
1%	5%	-4%	0%	-1%	1%	0.4	COC(=O)c1ccccc1NC(=O)C1CC(=O)N(c2ccc(F)cc2)C1 (stereo unspecified)
-8%	-11%	-5%	1%	-2%	-1%	-4.4	CCCCCCSc1nsc(NC(=O)CC(C)C)n1
12%	-9%	6%	15%	-8%	-2%	-0.2	CN1CCN(C(=O)c2ccc3c(=O)n(-c4ccc(F)cc4)c(=S)[nH]c3c2)CC1

# The results go on:
EPAC1 antag	EPAC1 agonist	PLK1 PBD inh	EPAC2 antag	WRN inhibitor	Mm-Cpn inhibitor	CCT chaperon mod	structure
-8%	6%	-7%	-15%	-7%	3%	1.1	O=C(Nc1ccccc1C(=O)O)c1cc(S(=O)(=O)N2CCCCCC2)ccc1Cl
-27%	-3%	-12%	15%	6%	1%	1.2	CCOC(=O)Cn1ncc2c3ccccc3n(CC(=O)OCC)c2c1=O
12%	11%	-20%	5%	-2%	-1%	-3.6	COC(=O)CCC(=O)OC1(C)C(=O)C=C2C=C(C3CC3)N(Cc3ccccc3)C=C2C1=O (stereo unspecified)
-10%	26%	-6%	-2%	-10%	.	-2.5	Cc1nn(Cc2ccccc2)c2sc(C(=O)N3CCN(Cc4ccc5c(c4)OCO5)CC3)cc12
-15%	-4%	?	-6%	-12%	-4%	-0.1	O=C(Nc1ncc([N+](=O)[O-])s1)c1ccccc1Br
-8%	8%	-12%	-7%	-1%	-2%	0.5	COc1ccc2oc(C(=O)NCC(Cc3ccccc3)N(C)C)c(C)c2c1 (stereo unspecified)
4%	7%	-17%	-16%	-4%	-2%	-6.6	COc1ccc(C(=O)Nc2ccccc2C(=O)Nc2cccnc2)cc1
-11%	1%	-12%	0%	7%	-8%	1.3	COc1ccc(CCC(C)N2CCC(CO)(Cc3ccccc3)CC2)cc1 (stereo unspecified)
-25%	1%	-24%	-3%	?	-5%	-1.0	N#Cc1ccsc1NC(=O)CSc1ncnc2ccccc12
-10%	-13%	-4%	10%	1%	-2%	2.8	COc1ccc(CCNC(=O)CCC(=O)Nc2nnc(C(C)C)s2)cc1OC
9%	-4%	-8%	-9%	16%	.	-0.6	CC(=O)N1CCc2c(sc(NC(=O)c3ccc(S(=O)(=O)N(C)CC4CCCO4)cc3)c2C(N)=O)C1 (stereo unspecified)
-18%	3%	0%	5%	-1%	-7%	0.6	COCCn1c(=O)[nH]c2cc(C(=O)NCCN3CCN(c4cccc(Cl)c4)CC3)ccc2c1=O
-1%	0%	-2%	-16%	-5%	-1%	-2.4	COc1cc(C(=O)NCCc2c[nH]c3ccccc23)ccc1OCc1c(C)noc1C
14%	5%	-4%	3%	1%	.	.	O=C1Nc2ccccc2-n2nnnc2C1N1CCN(c2ccc(C(F)(F)F)cn2)CC1 (stereo unspecified)
-27%	-5%	-5%	-6%	7%	-1%	-10	COCCn1c(=O)[nH]c2cc(C(=O)N3CCN(c4cccc(Cl)c4)CC3)ccc2c1=O
2%	8%	-14%	2%	2%	2%	-2.0	COc1ccc(CC2(CO)CCN(Cc3ccc4c(c3)CCO4)CC2)cc1
-21%	4%	-24%	18%	?	?	-1.0	CN(CC(=O)Nc1ccc(F)c(F)c1F)C(=O)CCc1nc2sc3c(c2c(=O)[nH]1)CCCC3
-8%	10%	-12%	-19%	?	-17%	-3.5	CCOC(=O)c1c(NC2=NS(=O)(=O)c3ccccc32)sc2c1CCC(C)C2 (stereo unspecified)
6%	8%	-5%	0%	3%	-2%	1.0	CSc1ncccc1C(=O)N(C)CC(=O)Nc1cccc(F)c1
-5%	2%	-4%	-2%	-2%	1%	-3.0	CCOC(=O)c1c(NC(=O)C(C)N2CCN(S(=O)(=O)c3cccs3)CC2)sc2c1CCC(C)C2 (stereo unspecified)
7%	2%	-5%	0%	-1%	-2%	-4.4	COCCn1c(=O)[nH]c2cc(C(=O)N3CCN(c4ccccc4OC)CC3)ccc2c1=O
-18%	-2%	-16%	15%	3%	-2%	-1.9	CCCSc1nsc(NC(=O)CCC)n1
4%	2%	2%	5%	-5%	2%	-3.2	CC(=O)Nc1ccc(NC(=O)CSc2nnc(-c3cccs3)n2C)cc1
-1%	5%	-3%	0%	-9%	-3%	-1.4	O=S(=O)(c1ccc(F)cc1)N1CCN(CC(O)COCc2cccs2)CC1 (stereo unspecified)

# Three entries from above, as tab-separated lines.
molecule	EPAC1 antag	EPAC1 agonist	PLK1 PBD inh	EPAC2 antag	WRN inhibitor	Mm-Cpn inhibitor	CCT chaperon mod
CSc1ncccc1C(=O)N(C)CC(=O)Nc1cccc(F)c1	6%	8%	-5%	0%	3%	-2%	1.0
CCOC(=O)c1c(NC(=O)C(C)N2CCN(S(=O)(=O)c3cccs3)CC2)sc2c1CCC(C)C2 (stereo unspecified)	-5%	2%	-4%	-2%	-2%	1%	-3.0
COCCn1c(=O)[nH]c2cc(C(=O)N3CCN(c4ccccc4OC)CC3)ccc2c1=O	7%	2%	-5%	0%	-1%	-2%	-4.4

# (further entries)
EPAC1 antag	EPAC1 agonist	PLK1 PBD inh	EPAC2 antag	WRN inhibitor	Mm-Cpn inhibitor	CCT chaperon mod	structure
-2%	4%	0%	-6%	-3%	0%	-1.8	CCOC(=O)c1cc(-c2ccccc2)sc1NC(=S)Nc1cc(C)ccn1
-9%	-4%	-12%	8%	-4%	1%	1.4	O=C(CSc1nccc(=O)[nH]1)Nc1ccc(F)c([N+](=O)[O-])c1
-8%	-12%	-7%	-15%	15%	.	1.9	COCCCn1c(C(=O)NC2CCCCC2)cc2c(=O)n3cccc(C)c3nc21
-6%	10%	0%	3%	-2%	1%	-3.7	CC(NC(=O)c1noc2c1CCCCC2)c1ccccc1 (stereo unspecified)
-3%	3%	-3%	2%	3%	-2%	0.0	COc1ccc(NC(=O)CSc2nnc(-c3cccs3)n2-c2ccccc2)cc1
?	5%	1%	-10%	-8%	-5%	0.0	CCOC(=O)c1ccc(NC(=O)C2(c3ccc(OC)cc3)CCCC2)cc1
-7%	6%	-3%	-4%	-4%	0%	0.8	COCCCn1c(C(=O)NC2CCCCC2C)cc2c(=O)n3cccc(C)c3nc21 (stereo unspecified)
-8%	3%	0%	0%	-16%	-1%	1.1	COc1ccc(C(C#N)Nc2ccccc2C)cc1 (stereo unspecified)
-10%	13%	-4%	-5%	1%	0%	-2.2	CCCCNC(=O)c1cc2nc(-c3ccccc3)cc(C(F)(F)F)n2n1
3%	6%	0%	1%	5%	2%	1.0	CN(C(=O)CSc1ncnc2sccc12)C1CCCCC1
-8%	-4%	6%	-10%	-13%	1%	-0.8	C=CCN1C(=O)c2ccc(C(=O)N3CCN(S(=O)(=O)c4ccc(C(C)C)cc4)CC3)cc2C1=O
5%	-11%	-5%	8%	0%	2%	-0.4	O=C(c1ccc(F)cc1)N1CCC(C(=O)N2CCN(S(=O)(=O)c3cccc(Cl)c3)CC2)CC1

# Assay outcomes as filed in PubChem BioAssay.
